GIV Gai3 FP: inhibitors of GIV GBA-motif binding to rat Galpha-i3; percent of control (FP), % (no concentration beside the values); 210,000 tested, 0.42% active; AID 1224905; P08753; Galpha-i3/FITC-GIV peptide fluorescence polarization, 90 min; active compounds read low; scaled: aluminum fluoride 0%, vehicle 100%;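 active means replicate mean at 85% of control or lower, very high polarization wells dropped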;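 further: wells of about 15 µL received 100 nL stock; the first replicate is given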
Target sequence (P08753 whole entry, looked up): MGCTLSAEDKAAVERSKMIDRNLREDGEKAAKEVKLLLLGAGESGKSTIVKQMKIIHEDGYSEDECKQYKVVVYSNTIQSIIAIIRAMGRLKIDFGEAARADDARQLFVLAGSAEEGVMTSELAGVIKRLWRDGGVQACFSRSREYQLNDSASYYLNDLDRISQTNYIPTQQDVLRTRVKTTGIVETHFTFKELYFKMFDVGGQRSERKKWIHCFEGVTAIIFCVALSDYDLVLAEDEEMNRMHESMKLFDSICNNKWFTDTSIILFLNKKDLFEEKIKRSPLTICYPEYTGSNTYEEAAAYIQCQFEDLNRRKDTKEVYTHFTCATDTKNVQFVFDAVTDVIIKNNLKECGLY
Sa growth 42C: S. aureus growth inhibition | relative growth, % (no concentration beside the values) | S. aureus RN4220 growth, OD600, 20 h, 42 °C; active compounds read low | 170,000 tested, 0.53% active | AID 720641;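 active means growth at 42 °C up to 50% and 20 or more points under that at 30 °C, or under 10% at both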;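 further: 300 nL library stock went into each well; scaled to the means of positive and negative controls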
HCMV NEC inh: disrupts HCMV UL50-UL53 complex binding | HTRF UL50-UL53 interaction, normalized percent inhibition | inhibition, % (no concentration beside the values) | 190,000 tested, 0.15% active;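 active means both replicates at 50% or more, plus weaker picks with an unusually low signal ratio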;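 further: stock transfer was 100 nL into about 20 µL; 0% = negative control wells and 100% = wells with untagged competitor protein; inactives centre near -12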
Sa growth 42C second temp: further read-out of Sa growth 42C, marked with its call; relative growth, %; measured here: growth at 30 °C;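 optical density after 20 h as mean of two plates; 100% = untreated growth and lower means inhibition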
Active calls of the source: *; . = not tested or not shown. The order is random; overall some 0.85% were active at least once.

SMILES | GIV Gai3 FP | Sa growth 42C | Sa growth 42C second temp | HCMV NEC inh
CCN(CC)CCNC(=O)Cn1ncc2c([nH]c3ccccc32)c1=O | 100 | 104 | 96 | .
COc1cccc(Nc2nc(C)c3ncn(-c4cccc(OC)c4)c3n2)c1 | 114 | . | . | -34
CC(c1ccccc1)N1CCn2c(nc3ccccc32)C1 (stereo not drawn) | 102 | . | . | 9
C=Cc1ccc(Cn2nc3n(CCC(C)C)c(=O)c4ccc(C(=O)NC(C)CC)cc4n3c2=O)cc1 (stereo not drawn) | 104 | . | . | -8
CCOc1ccc(/C=C/C(=O)Sc2ccc(Cl)cc2)cc1 | . | 119 | 86 | -3
O=C(c1ccccc1Cl)N1N=C(c2ccccc2)CC1c1nc2ccccc2[nH]1 (stereo not drawn) | 102 | . | . | 3
Cc1ccc2c(c1)NC(c1cccnc1)=NC(c1ccc(F)cc1)=N2 | 102 | 94 | 91 | -32
CCCNC(=O)CCc1nnc2ccc(N(CC)CC)nn12 | 107 | 89 | 105 | -8
Cc1ccc2cccc(NC(=O)C(F)(F)F)c2n1 | 96 | 91 | 81 | -34
Cc1nn(-c2ccc3nncn3n2)c2c1C(c1ccccc1OCc1ccccc1)CC(=O)N2 (stereo not drawn) | 99 | . | . | -36
Cc1cccc(OCc2nc(CC(=O)Nc3ccc(C)cc3C)cs2)c1 | 104 | 111 | 86 | -26
CC(C)n1c(O)c(N=NC(=S)NC2CCCCC2)c2ccccc21 | . | 15 | 7 | -16
O=C1CC(c2ccccc2)CC(O)=C1C=NCCN1CCOCC1 (stereo not drawn) | 103 | 98 | 90 | .
N#Cc1nccnc1SCc1ccc(Cl)cc1Cl | 100 | 89 | 79 | -18
CC(=O)Nc1ccc(N2C(=O)CSC2c2ccccc2)cc1 (stereo not drawn) | 106 | 88 | 80 | .
O=C1Nc2ccccc2Oc2cc(Oc3ccc(Cl)cc3)ccc21 | 100 | 114 | 97 | .
CC(C)(C)c1ccc(C(=O)NCC(=O)NCc2ccccn2)cc1 | . | 93 | 86 | -31
Cc1nn(CCC#N)c2c1C(c1ccc3c(c1)OCO3)C1=C(CC(C)(C)CC1=O)N2 (stereo not drawn) | . | 81 | 93 | -1
Cn1c(C2=C(O)CN(c3ccc(Cl)cc3)C2=N)nc2ccccc21 | 106 | . | . | 22
COCC(=O)N1CCN(c2ccccn2)CC1 | 108 | 112 | 92 | -9
O=C(COc1ccccc1F)c1ccc(O)cc1O | 104 | 76 | 40 | -24
Cc1ccc(NC(=O)Cn2c(=O)n(CCCCCC(=O)NCc3ccc(F)cc3)c(=O)c3sccc32)c(C)c1 | 103 | 94 | 93 | -21
Nc1cc(C(=O)OCC(=O)NC2CCCCCC2)ccc1Cl | . | 75 | 86 | -4
Cc1cc(C(N)=O)c(C)n1-c1ccc(-c2nc3ccccc3[nH]2)cc1 | . | 70 | 79 | 0
Cc1ccc(Cl)cc1NC(=O)N1CCN(C)c2ncccc21 | 107 | 101 | 81 | -53
CCOCCCN=C1SCC(CC)N1C(=O)c1ccc(C#N)cc1 (stereo not drawn) | . | 82 | 92 | -10
CC1CN(c2ncc(C(=O)OCC3CC3)c(C(F)(F)F)n2)CC(C)O1 (stereo not drawn) | 102 | 96 | 91 | -18
Cc1nc(-n2[nH]c(C)c(Cc3ccc(Cl)cc3)c2=O)sc1C(=O)NC(C)C | 101 | . | . | -29
COc1ccc(S(=O)(=O)N2CCC(N3CCN(Cc4ccc(F)cc4)C3=O)CC2)cc1OC | 100 | . | . | -16
CCOc1ccccc1NC(=O)N1CCOc2ccc(Cl)cc21 | 101 | 109 | 86 | .
COc1ccccc1NC(=S)N(CCN(C)C)C(C)c1ccncc1 (stereo not drawn) | 104 | 99 | 92 | -5
Cc1nn(CO)c(C)c1Sc1ccc(Br)cc1 | 103 | 18* | 44* | .
Cc1cnc(C(=O)OCC(=O)N2CC(C)CC(C)C2)cn1 (stereo not drawn) | . | 105 | 99 | 11
CC(=O)c1cccc(NC(=O)C2=CC(c3ccco3)=NS(=O)(=O)N2C)c1 | 106 | 128 | 86 | -60
c1ccc(-c2nsc(N3CCOCC3)n2)cc1 | 101 | 93 | 70 | -38
O=C(COC(=O)C1=NNC(=O)CC1)NCc1ccco1 | . | 102 | 97 | -6
Nc1nnc(SCC(=O)N2c3ccccc3Sc3ccc(C(F)(F)F)cc32)s1 | 104 | 105 | 84 | .
COc1ccc(-c2cn3c(n2)sc2cc(C(=O)N4CCCCC4)ccc23)cc1 | 109 | 111 | 75 | .
CCOC(=O)N1CCN(C(=O)CS(=O)Cc2nc(-c3cccc(C)c3)oc2C)CC1 (stereo not drawn) | 102 | 86 | 86 | -29
CCOc1cc(CNCCc2c[nH]c3ccccc23)ccc1Oc1nnnn1-c1ccccc1 | 100 | . | . | 12
COc1ccc(NC(=O)CSc2ncc3c(n2)-c2ccccc2N(Cc2ccc(C)cc2)S3(=O)=O)cc1 | 108 | . | . | -29
CCCCOc1nnc(-c2ccc(OC)cc2)c2ccccc12 | 98 | . | . | -22
O=C(COc1ccc(Cl)cc1)NCCC12CC3CC(CC(C3)C1)C2 | 100 | 99 | 87 | .
COc1cc(/C=C/C(=O)N2CCC(C)CC2)ccc1OCc1c(C)noc1C | . | 96 | 104 | 3
Cn1c(C(F)(F)F)nc2c3nsnc3ccc21 | 106 | . | . | -86
O=C(CSc1nnc(CCCN2C(=O)c3cccc4cccc(c34)C2=O)n1-c1ccccc1)NCCCO | 103 | . | . | -94
Cc1ccc(C2CC(=O)Nc3cc4c(cc32)OCO4)cc1 (stereo not drawn) | 95 | . | . | 11
Cc1ccc(NN)cc1 | . | 109 | 91 | -4

Reprinted at random: two compounds from above, in no set order.
SMILES | GIV Gai3 FP | Sa growth 42C | Sa growth 42C second temp | HCMV NEC inh
CCOc1cc(CNCCc2c[nH]c3ccccc23)ccc1Oc1nnnn1-c1ccccc1 | 100 | . | . | 12
Cn1c(C(F)(F)F)nc2c3nsnc3ccc21 | 106 | . | . | -86

The list goes on.
SMILES | GIV Gai3 FP | Sa growth 42C | Sa growth 42C second temp | HCMV NEC inh
O=C(CSc1nc2c([nH]c3ccccc32)c(=O)n1-c1ccc(F)cc1)NCc1ccc(F)cc1 | 108 | 114 | 83 | .
N#Cc1ccc(NC2=NCCC2)cc1 | . | 91 | 95 | -4
CCOC(=O)N1CCC(NC(=O)C(Cc2ccccc2)NC(=O)c2ccco2)CC1 (stereo not drawn) | 104 | 72 | 87 | .
N#C/C(C(=O)N1CCCCC1)=C1/C(=O)Nc2ccccc21 | 100 | 100 | 80 | .
COc1ccc2c(c1)CCc1c-2n[nH]c1C(=O)NC1CCCC1 | 101 | . | . | -10
O=c1[nH]c2cc(Cl)c(S(=O)(=O)Nc3ccccc3)cc2[nH]1 | 99 | . | . | -30
CCn1c2ccccc2c2cc(CN3CCN(Cc4cccc(Cl)c4)CC3)ccc21 | 105 | 93 | 88 | -19
Cc1ccc(C2Nc3ccc(C(=O)c4ccccc4)cc3NC3=C2C(=O)CCC3)o1 (stereo not drawn) | 101 | 98 | 86 | -26
CCOc1ccccc1NC(=O)C(=O)Nc1ccc2nc3n(c(=O)c2c1)CCCCC3 | 100 | 105 | 86 | -2
CC(=O)Nc1ccc(NC(=O)/C=C/c2ccccc2)cc1 | 104 | 105 | 81 | .
O=C(OCC(=O)N1CCNC1=O)c1cc(-c2ccc(Cl)cc2)nc2ccccc12 | . | 94 | 100 | -17
CN(CC(=O)Nc1ccc(Cl)cc1)Cc1cc(=O)n2ccsc2n1 | . | 130 | 94 | 8

As a short view, part of the list above.
SMILES | GIV Gai3 FP | Sa growth 42C | Sa growth 42C second temp | HCMV NEC inh
COc1cc(/C=C/C(=O)N2CCC(C)CC2)ccc1OCc1c(C)noc1C | . | 96 | 104 | 3
Cn1c(C(F)(F)F)nc2c3nsnc3ccc21 | 106 | . | . | -86
O=C(CSc1nnc(CCCN2C(=O)c3cccc4cccc(c34)C2=O)n1-c1ccccc1)NCCCO | 103 | . | . | -94
Cc1ccc(C2CC(=O)Nc3cc4c(cc32)OCO4)cc1 (stereo not drawn) | 95 | . | . | 11
Cc1ccc(NN)cc1 | . | 109 | 91 | -4
O=C(CSc1nc2c([nH]c3ccccc32)c(=O)n1-c1ccc(F)cc1)NCc1ccc(F)cc1 | 108 | 114 | 83 | .
N#Cc1ccc(NC2=NCCC2)cc1 | . | 91 | 95 | -4
CCOC(=O)N1CCC(NC(=O)C(Cc2ccccc2)NC(=O)c2ccco2)CC1 (stereo not drawn) | 104 | 72 | 87 | .
N#C/C(C(=O)N1CCCCC1)=C1/C(=O)Nc2ccccc21 | 100 | 100 | 80 | .
COc1ccc2c(c1)CCc1c-2n[nH]c1C(=O)NC1CCCC1 | 101 | . | . | -10
O=c1[nH]c2cc(Cl)c(S(=O)(=O)Nc3ccccc3)cc2[nH]1 | 99 | . | . | -30
CCn1c2ccccc2c2cc(CN3CCN(Cc4cccc(Cl)c4)CC3)ccc21 | 105 | 93 | 88 | -19
Cc1ccc(C2Nc3ccc(C(=O)c4ccccc4)cc3NC3=C2C(=O)CCC3)o1 (stereo not drawn) | 101 | 98 | 86 | -26
CCOc1ccccc1NC(=O)C(=O)Nc1ccc2nc3n(c(=O)c2c1)CCCCC3 | 100 | 105 | 86 | -2
CC(=O)Nc1ccc(NC(=O)/C=C/c2ccccc2)cc1 | 104 | 105 | 81 | .
O=C(OCC(=O)N1CCNC1=O)c1cc(-c2ccc(Cl)cc2)nc2ccccc12 | . | 94 | 100 | -17
CN(CC(=O)Nc1ccc(Cl)cc1)Cc1cc(=O)n2ccsc2n1 | . | 130 | 94 | 8

Following part:
SMILES | GIV Gai3 FP | Sa growth 42C | Sa growth 42C second temp | HCMV NEC inh
CCCCN(CC)C(=O)CSc1nc2n[nH]c(C)c2c(=N)n1-c1cccc(C)c1 | 101 | 76 | 66 | .
CCC(=O)N(C/C=C/c1ccccc1)c1ccc2c(c1)OCCO2 | . | 82 | 82 | 1
O=C(c1ccc2c(c1)N(Cc1ccc(Cl)cc1)C(=O)c1ccccc1S2(=O)=O)N1CCCCC1 | 104 | 91 | 96 | 0
O=C(NCc1ccco1)c1cc(-c2cccs2)nc2ccccc12 | . | 91 | 87 | -45
COc1ccccc1C(=O)Nc1cccc(C(=O)OCc2cc(=O)n3cc(C)sc3n2)c1 | 105 | 62 | 63 | .
CCOC(=O)c1sc(N)c(C(=O)OCC)c1CSc1nc2ccccc2s1 | . | 83 | 84 | -20
CC1Cc2ccccc2N1CC(=O)Nc1ccc2c(c1)OCCCO2 (stereo not drawn) | . | 84 | 88 | -15
CCc1ccc(CNC(=O)CSc2cc(=O)n(C)c3ccc(Cl)cc23)cc1 | 107 | 120 | 84 | 4
Cc1ccc(-c2nc(CS(=O)CC(=O)NCCN3CCCCC3C)c(C)o2)cc1 (stereo not drawn) | 99 | 100 | 92 | .
COc1ccccc1CNC(=O)CSc1cc(C)[nH]c(=O)n1 | 105 | 121 | 94 | .
CCOC(=O)c1ccccc1NC(=O)CSc1nc2c(c(=O)n1C)SCC2 | 100 | . | . | -23
Cc1cnnc(/N=C(\N)Nc2ccc(S(=O)(=O)Nc3nc(C)ccc3C)cc2)n1 | . | 109 | 86 | -14
CCCNS(=O)(=O)c1ccc(CN2C(=O)c3cccnc3C2=O)cc1 | 99 | 77 | 90 | -47
CCOc1ccccc1NC(=O)Cn1c(=O)n(CCCCC(=O)NC(C)C)c(=O)c2ccccc21 | 108 | . | . | -1
CCCN(CCC)C(=O)CSc1nc2ncccc2o1 | 102 | 108 | 85 | -32
CN1CCN(C(CNC(=O)c2ccccc2)c2ccc3c(c2)OCO3)CC1 (stereo not drawn) | 99 | 113 | 83 | .
CCOC(=O)C1=C(C)NC(SCC(=O)C23CC4CC(CC(C4)C2)C3)=C(C#N)C1c1cccs1 (stereo not drawn) | 99 | . | . | -14
CCOC(=O)C1=C(C)N=c2s/c(=C/c3ccc(OC(C)=O)c(OCC)c3)c(=O)n2C1c1cccs1 (stereo not drawn) | 102 | . | . | -22
CCCCn1nnnc1COC(=O)c1c(-c2c(F)cccc2Cl)noc1C | . | 94 | 89 | -30
Cc1ccc(-c2nc(CSc3nc(C)c(C)c(=O)[nH]3)c(C)o2)cc1 | 104 | . | . | -7
Cc1cc(C)c2c(C)c(C(=O)Nc3ccc4c(c3)NC(=O)CO4)oc2c1 | 105 | . | . | -5
O=C(c1ccc(-n2ccc3ccccc32)s1)N1CCCCC1 | 103 | 87 | 41 | 9
CSc1cccc(NS(=O)(=O)c2ccc3[nH]cc(C(=O)N4CCCC4)c(=O)c3c2)c1 | 102 | 103 | 87 | -14
Brc1ccc(-c2ccc(CNCC3CCNCC3)o2)cc1 | 104 | . | . | -29
CCN(C(=O)c1cnccc1C(F)(F)F)c1ccc(Cl)cc1 | 106 | 98 | 98 | 1
CC(C)(O)C#CCN1CCCCC1 | 94 | 103 | 97 | 3
c1coc(Cn2c(-c3ccco3)nc3ccccc32)c1 | 103 | 108 | 83 | 6
O=C(c1ccc(Cn2c(=O)c3cccn3c3cccnc32)cc1)N1CCN(c2ccccc2)CC1 | 105 | . | . | 27
COC(=O)c1cccc(NC(=NCc2ccncc2)NC(=O)c2ccc3c(c2)OCO3)c1 | 107 | . | . | -23
CCN1CCN(CCNC(=O)c2ccc(N3CCCc4ccccc43)s2)CC1 | 102 | 99 | 88 | -51
